Source: PubChem BioAssay
MbtI inh: inhibitors of Mycobacterium tuberculosis siderophore enzyme MbtI; P9WFX0; purified MbtI enzyme, fluorescence intensity read-out; inhibition, %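 (about 17 µg/mL by stock and volumes)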; 0.89% of 100,000 active;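 active means above 50% in both replicates, above 80% if mildly self-fluorescent; inactive means the rest, strongly fluorescent compounds included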;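 further: 0% = mean of negative and 100% = mean of positive controls; one replicate is shown; some compounds called inactive have numbers as strong as hits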
Target sequence (P9WFX0 whole entry, looked up): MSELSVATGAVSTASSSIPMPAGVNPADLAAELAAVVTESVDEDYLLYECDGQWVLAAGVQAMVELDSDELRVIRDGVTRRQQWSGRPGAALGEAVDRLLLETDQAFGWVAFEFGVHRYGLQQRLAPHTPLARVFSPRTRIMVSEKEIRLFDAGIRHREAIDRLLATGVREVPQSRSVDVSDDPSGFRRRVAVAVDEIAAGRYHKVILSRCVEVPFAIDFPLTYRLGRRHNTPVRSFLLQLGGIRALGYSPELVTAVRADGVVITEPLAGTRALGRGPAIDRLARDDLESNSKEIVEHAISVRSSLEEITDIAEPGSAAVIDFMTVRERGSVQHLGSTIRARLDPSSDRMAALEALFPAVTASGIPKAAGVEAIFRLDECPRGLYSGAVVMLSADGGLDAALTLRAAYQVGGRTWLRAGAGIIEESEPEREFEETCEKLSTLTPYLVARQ
Mtb MenB inh: inhibitors of Mycobacterium tuberculosis MenB enzyme | P9WNP5 | MenB enzyme assay, absorbance read-out; some hits fall short of the stated cut | inhibition, %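 (about 12 µg/mL by stock and volumes)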 | 0.43% of 100,000 active;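 active means mean of two replicates above 30%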;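 further: 0% = no compound and 100% = wells with inactive enzyme; the first replicate is given; strong numbers were not always called active; inactives centre near -10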
Polio RdRp inh: inhibitors of poliovirus RNA polymerase binding and polymerization. 0.66% of 150,000 active. % elongation, % (compound at 16.7 µg/mL). AID 588519. poliovirus polymerase elongation, fluorescence polarization; active compounds read low; in the data active means % elongation below about 90%; further: some results filed as inactive read as strong as hits
Target sequence (P03300 1749-2209 limits assumed): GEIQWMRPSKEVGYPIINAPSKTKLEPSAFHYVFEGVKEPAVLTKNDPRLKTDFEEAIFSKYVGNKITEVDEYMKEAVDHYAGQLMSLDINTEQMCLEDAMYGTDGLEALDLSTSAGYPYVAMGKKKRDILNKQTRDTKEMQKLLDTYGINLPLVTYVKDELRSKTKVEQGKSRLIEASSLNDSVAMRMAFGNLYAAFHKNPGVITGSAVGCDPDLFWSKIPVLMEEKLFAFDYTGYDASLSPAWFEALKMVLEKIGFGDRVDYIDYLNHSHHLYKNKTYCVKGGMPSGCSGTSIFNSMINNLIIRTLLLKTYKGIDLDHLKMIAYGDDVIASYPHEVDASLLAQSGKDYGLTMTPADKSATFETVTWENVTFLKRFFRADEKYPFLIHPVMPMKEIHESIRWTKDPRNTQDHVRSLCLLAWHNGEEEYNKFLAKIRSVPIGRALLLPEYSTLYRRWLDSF
Polio RdRp inh intensity: also measured in Polio RdRp inh; calls as there; % elongation; measured here: total intensity read-out; formula for this scale not given here;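 total fluorescence in place of polarization; lower means less elongation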
Starred values were filed as active, the others as inactive; . = no result given.

structure	MbtI inh	Mtb MenB inh	Polio RdRp inh	Polio RdRp inh intensity
COC(=O)Cc1[nH]n(-c2ccc(OC)cc2)c(=O)c1C(C)=NC(C)(C)C	10.0	23.3	101.0	103.0
CCOC(=O)c1cc(NC(=O)C2C3C=CC(O3)C2C(=O)O)cc(C(=O)OCC)c1 (configuration not stated)	-26.0	-20.0	103.0	98.0
O=C(O)CC1(CC(=O)N2CCN(c3ccccc3)CC2)CCCC1	-9.2	-17.2	104.0	101.0
O=C1CCCc2oc(=O)ccc21	33.8	-1.8	96.0	95.0
FC(F)(F)c1ccc(CSc2nccc(-c3cccnc3)n2)cc1	-6.1	-18.6	98.0	100.0
Cc1onc(-c2c(F)cccc2Cl)c1C(=O)N1CC(Oc2ccc(Cl)cc2)C1	-12.4	-24.2	104.0	114.0
O=C(COC(=O)CSc1nc2ccccc2o1)NC1CC1	8.4	-25.5	101.0	101.0
CC1CCN(S(=O)(=O)c2ccccc2)CC1	-14.2	-11.5	105.0	101.0
CCN(CC)S(=O)(=O)c1ccc2nnn(OCC(=O)NCc3ccccc3OC)c2c1	-3.7	7.9	98.0	100.0
CC(SCc1ccccc1)C(=O)NCc1ccccn1 (configuration not stated)	-7.1	-7.8	101.0	101.0
COc1ccc(OC)c(C2C(C#N)=C(N)Oc3cc(C)oc(=O)c32)c1 (configuration not stated)	.	7.7	102.0	107.0
CC(NC=C1C(=O)OC(C)(C)OC1=O)C(=O)O (configuration not stated)	-1.2	15.4	99.0	98.0
Cc1ccc(CC(C#N)Sc2nnc(-c3ccc(F)cc3)n2CC2CCCO2)cc1 (configuration not stated)	-7.6	-34.4	105.0	99.0
COc1cc2nc(C3CCC3)n(NC(=O)c3ccccc3C)c(=O)c2cc1OC	6.3	-5.7	102.0	103.0
Cc1cc(=O)oc2ccc(OCC(=O)N3CCOCC3)cc12	.	9.7	106.0	113.0
CN(C)S(=O)(=O)c1ccc(-c2csc(=Nc3ccccc3)n2CCN2CCOCC2)cc1	4.3	-28.0	101.0	108.0
Cc1noc(-c2ccccc2)c1NC(=O)Nc1ccccc1	-11.6	-22.6	103.0	103.0
Cc1ccc(-c2cc3nc(C(F)(F)F)cc(C(F)(F)F)n3n2)cc1	-9.7	-9.0	104.0	101.0
CCOC(=O)CC1(c2ccccc2)CCOC(C)(C)C1 (configuration not stated)	.	-16.5	97.0	98.0
CCOC(=O)C(C)Oc1cccc2c(=O)n(CC(=O)Nc3ccc4c(c3)OCCO4)ccc12 (configuration not stated)	54.6	-23.6	106.0	109.0
Cc1cc(C)nc(Sc2ccc(S(=O)(=O)C(F)F)cc2S(=O)(=O)C(F)F)n1	-0.3	3.7	103.0	106.0
O=C(N/N=C1/CCc2ccccc21)C1CC1	8.8	-13.6	104.0	109.0
CCN(CC(=O)NCc1cccs1)C(=O)Cc1c(C)noc1C	4.5	-10.9	99.0	101.0
S=C(NCC1CC1)Nc1ccc(Cl)cc1	-13.2	-5.6	103.0	105.0
Cc1ccc(NC(=O)c2cc(-c3ccc4c(c3)OCO4)on2)cc1C	-3.6	3.2	100.0	104.0
Cn1c(=O)c2c(ncn2CC(=O)N2CCSC2=NCCc2ccccc2)n(C)c1=O	6.8	-7.3	100.0	92.0
CC(C(=O)N1CCCC1)N1CCN(S(=O)(=O)c2ccc3ccccc3c2)CC1 (configuration not stated)	2.4	3.5	.	.
O=C(ON=C1CCC2(CC1)OCCO2)c1cccc(C(F)(F)F)c1	4.5	10.6	101.0	103.0
CC(C)=CC1C(C(=O)Nc2ccc(Cl)cn2)C1(C)C (configuration not stated)	-2.4	-12.6	104.0	102.0
COc1ccc(S(=O)(=O)N2CCc3ccccc32)cc1C(=O)NC(C)(C)C	-0.7	-23.6	104.0	96.0
Clc1cc(CNCc2ccccc2CN2CCOCC2)cc2c1OCCCO2	-2.5	-16.1	97.0	98.0
CCOC(=O)c1c(C)cc(C)[nH]c1=S	.	-16.0	100.0	104.0
CC1=C/C(=N\Nc2ncc(Cl)cc2Cl)CC(C)(C)C1	-0.9	-27.4	107.0	99.0
COc1ccc(Cl)cc1NC(=O)c1oc2ccc(S(=O)(=O)N3CCC4(CC3)OCCO4)cc2c1C	134.8	-11.7	101.0	103.0
CCOC(=O)/C=C1\SCC(=O)N1CC(=O)NC1CCCc2ccccc21 (configuration not stated)	-6.7	-22.4	107.0	113.0
CCCCN(C(=O)c1cc(OC)c(OC)c(OC)c1)C1=CC2CCC(C1)N2C (configuration not stated)	6.8	-17.6	104.0	103.0
CNc1c(NC(=O)c2cccc(F)c2)c(=O)oc2ccccc12	5.2	-17.4	104.0	101.0
NC(=O)c1csc(-c2cccnc2)n1	-5.4	-8.1	106.0	108.0
COc1ccc(CNC(=O)c2noc(C)c2CN2CCOCC2)cc1	-26.0	4.8	101.0	100.0
C=CCC1C=CCC(CC=C)N1C(C)=O (configuration not stated)	-0.6	-23.6	99.0	105.0
COc1ccccc1Nc1ncnc2c1cnn2-c1ccccc1	19.3	1.9	104.0	102.0
CC1CN(Cc2ccccc2Cl)CC(C)O1 (configuration not stated)	10.8	-17.1	99.0	100.0
Cn1c(CSc2nc3ccccc3s2)nnc1SCC(=O)NCCCN1CCOCC1	-0.9	-1.7	101.0	99.0
O=C(O)COc1ccccc1/C=C1/C(=O)Nc2cc(Cl)ccc21	32.4	-77.7	104.0	108.0
Clc1cccc2sc(N3CCCC3)nc12	-0.9	-4.0	102.0	103.0
COc1cc2c(cc1OC)C(NN)=NC(C)(C)C2	132.1	-1.1	102.0	105.0
COC(=O)C1=C(C)N(CC2CCCO2)C(=O)/C1=C\c1ccccc1 (configuration not stated)	1.0	-78.5	100.0	101.0
COc1cc(C(=O)Nc2c3c(nn2-c2ccc(F)cc2)CS(=O)(=O)C3)cc(OC)c1OC	6.0	-17.4	103.0	100.0
CCOC(=O)C1=C(C)NC(C)=C(C(=O)OCC)C1C(=O)OCC(=O)N1CCc2ccccc2C1	0.6	-26.3	105.0	108.0
O=C(CC1c2ccccc2Oc2ccccc21)NCc1ccco1	.	-13.9	101.0	112.0

Continuation:
structure	MbtI inh	Mtb MenB inh	Polio RdRp inh	Polio RdRp inh intensity
C=CCn1c(SCC(=O)Nc2nnc(CC)s2)nnc1-c1cccs1	.	-15.0	105.0	110.0
c1ccc(-c2nccnn2)cc1	-15.7	-34.2	103.0	99.0
O=C(Cn1[nH]c(=O)c2ccccc2c1=O)OCC(=O)N1CCCc2ccccc21	-16.5	-14.8	98.0	101.0
COc1cccc(C(CC(=O)Nc2sc3c(c2C#N)CCCC3)NC(=O)c2ccccc2)c1 (configuration not stated)	12.3	-11.9	100.0	96.0
CCC(=O)Nc1cc(C(C)C)c(O)cc1C	-7.4	-11.2	101.0	101.0
Cc1nc2ccc(S(=O)(=O)CCC(=O)NCc3cccs3)cc2s1	-7.9	-3.2	103.0	102.0
Cc1nn(Cc2ccc(F)cc2)c2sc(C(=O)Nc3ccc(S(=O)(=O)N4CCCC4)cc3)cc12	85.4	-12.4	101.0	103.0
CCOc1ccc(OCCN2CCN(C)CC2)cc1	0.2	-2.5	103.0	102.0
Cc1ccc(OCCOCCN2CCCCC2)c(C)c1	-6.6	-38.5	103.0	100.0
O=C(O)C1CCN(C(=O)/C=C/c2ccccc2)CC1	13.0	7.5	102.0	106.0

Reprinted at random: 3 compounds from above
structure	MbtI inh	Mtb MenB inh	Polio RdRp inh	Polio RdRp inh intensity
Cc1cc(C)nc(Sc2ccc(S(=O)(=O)C(F)F)cc2S(=O)(=O)C(F)F)n1	-0.3	3.7	103.0	106.0
O=C(CC1c2ccccc2Oc2ccccc21)NCc1ccco1	.	-13.9	101.0	112.0
CC1CN(Cc2ccccc2Cl)CC(C)O1 (configuration not stated)	10.8	-17.1	99.0	100.0

(further entries)
structure	MbtI inh	Mtb MenB inh	Polio RdRp inh	Polio RdRp inh intensity
CCOc1ccc(S(=O)(=O)N(CC(=O)N2CCC(C)CC2)c2ccccc2)cc1	1.1	-28.0	102.0	105.0
CCN(CC)c1ccc(NC(=O)c2ccc(C)cc2)c(N(CC)CC)n1	2.8	-13.3	102.0	95.0
O=C(OCc1cc(=O)n2c3c(sc2n1)CCCC3)C1CCCN1S(=O)(=O)c1ccccc1F (configuration not stated)	-59.0	2.2	99.0	108.0
COc1cccc(CN2CCC(C(=O)N3CCc4ccccc4C3)CC2)c1OC	.	8.6	101.0	103.0
NC(=O)/C(=N/O)C1=NC2(CCCCC2)Cc2ccccc21	.	-18.5	99.0	109.0
CCCNC(=O)c1ccc(-n2c(-c3ccccc3)cc3c2CCCC3)cc1	9.1	-24.6	104.0	104.0
CC1CCCCN1C(=O)COC(=O)Cc1c[nH]c2ccccc12 (configuration not stated)	-4.4	-4.3	100.0	93.0
COc1ccc(Cl)cc1NC(=O)CN1C(=O)CSC(C)C1=O (configuration not stated)	-0.1	-4.2	103.0	98.0
CCN(CC(=O)Nc1ccc2c(c1)OCCO2)c1ccc(S(=O)(=O)N2CCOCC2)cn1	-17.0	6.8	101.0	99.0
COc1cc(C2C(C#N)=C(N)Oc3nc[nH]c(=O)c32)ccc1OCC(N)=O (configuration not stated)	-2.0	-10.5	101.0	102.0
CCn1nccc1NC(=O)c1ccc(Cl)c(S(=O)(=O)N(C)c2ccccc2)c1	7.1	-9.2	104.0	108.0
CC(C)(C)C(=O)COC(=O)c1cc(Br)ccc1Cl	-5.7	.	101.0	104.0
Cc1cc(CCN)c(C)n1-c1ccccc1	-1.3	-28.4	105.0	109.0
C=CCn1c(SCC(=O)c2ccccc2)nnc1-c1sc2nc(C)cc(C)c2c1N	-8.2	-8.5	106.0	109.0
Cc1csc(NN=C2CCCCC2)n1	19.9	-18.3	103.0	104.0
O=C(CCC(=O)N1CCOc2ccccc21)N1CCOCC1	-7.3	-15.3	106.0	101.0
Cc1c(C(=O)O)c2ccccc2n1C	22.0	-27.8	102.0	105.0
O=C(NCCc1ccccc1)C1CC(=O)N2CCN=C2S1 (configuration not stated)	-8.4	-21.0	103.0	104.0
O=C1CC(c2ccc(S(=O)(=O)N3CCCCC3)cc2)CN1 (configuration not stated)	.	-24.2	105.0	95.0
CC1(C)CC(=O)C(C=NCCO)=C(O)C1	21.9	-20.5	104.0	102.0
COCCN1C(=O)/C(=C/c2cn(CC(=O)OC)c3ccccc23)C(=O)N(c2ccccc2)C1=O	13.8	-26.5	101.0	103.0
Cn1c(=O)cc(OCCCC(=O)NC2CCCCC2)c2ccccc21	0.5	-11.2	101.0	104.0
O=C(CN1C(=O)C(c2ccccc2)=NC12CCCC2)Nc1ccc(Cl)cc1	-4.8	-7.2	100.0	101.0
CSc1nnc2c(n1)OC(C)Nc1ccccc1-2 (configuration not stated)	17.1	-3.0	100.0	100.0
CN1C(=O)c2ccccc2N(C)C1c1ccc(F)cc1 (configuration not stated)	89.2	0.7	101.0	102.0
CC(=O)NC12CC3CC(C1)CC(C(=O)N1CCN(Cc4ccccc4)CC1)(C3)C2	1.8	6.9	97.0	103.0
CCOc1ccccc1NC(=O)c1cccc(NC(=O)c2ccco2)c1	5.9	-24.5	105.0	105.0
C=C1c2ccccc2N=C(SCC(=O)Nc2cccnc2Cl)N1C	-10.1	-19.3	96.0	102.0
Cc1cc2occ(CC(=O)Oc3ccc(-c4nnco4)cc3)c2cc1C(C)C	-0.2	-20.9	98.0	98.0
CCCN1CC=C2C(C#N)=C(N)C(C#N)(C#N)C(c3ccc(OCC(N)=O)cc3)C2C1 (configuration not stated)	18.9	-63.9	92.0	115.0
CSc1ccccc1NC(=O)Cc1ccccc1	-14.9	-3.6	100.0	98.0

Compounds above containing fluorine:
structure	MbtI inh	Mtb MenB inh	Polio RdRp inh	Polio RdRp inh intensity
FC(F)(F)c1ccc(CSc2nccc(-c3cccnc3)n2)cc1	-6.1	-18.6	98.0	100.0
Cc1onc(-c2c(F)cccc2Cl)c1C(=O)N1CC(Oc2ccc(Cl)cc2)C1	-12.4	-24.2	104.0	114.0
Cc1ccc(CC(C#N)Sc2nnc(-c3ccc(F)cc3)n2CC2CCCO2)cc1 (configuration not stated)	-7.6	-34.4	105.0	99.0
Cc1ccc(-c2cc3nc(C(F)(F)F)cc(C(F)(F)F)n3n2)cc1	-9.7	-9.0	104.0	101.0
Cc1cc(C)nc(Sc2ccc(S(=O)(=O)C(F)F)cc2S(=O)(=O)C(F)F)n1	-0.3	3.7	103.0	106.0
O=C(ON=C1CCC2(CC1)OCCO2)c1cccc(C(F)(F)F)c1	4.5	10.6	101.0	103.0
CNc1c(NC(=O)c2cccc(F)c2)c(=O)oc2ccccc12	5.2	-17.4	104.0	101.0
COc1cc(C(=O)Nc2c3c(nn2-c2ccc(F)cc2)CS(=O)(=O)C3)cc(OC)c1OC	6.0	-17.4	103.0	100.0
Cc1nn(Cc2ccc(F)cc2)c2sc(C(=O)Nc3ccc(S(=O)(=O)N4CCCC4)cc3)cc12	85.4	-12.4	101.0	103.0
O=C(OCc1cc(=O)n2c3c(sc2n1)CCCC3)C1CCCN1S(=O)(=O)c1ccccc1F (configuration not stated)	-59.0	2.2	99.0	108.0
CN1C(=O)c2ccccc2N(C)C1c1ccc(F)cc1 (configuration not stated)	89.2	0.7	101.0	102.0
